# UCH37 inh: inhibitors of human UCH37 deubiquitinase, primary screen, biochemical, Ub-AMC cleavage, fluorescence. Ubiquitin carboxyl-terminal hydrolase isozyme L5 (Homo sapiens), Q9Y5K5. purified proteasome/UCH37. inhibition, % (test concentration not listed). 330,000 compounds, 0.33% hits;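 active means mean of two replicates above 20%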;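 further: 0% = compound-free wells with enzyme and 100% = wells lacking proteasome; stock transfer was 100 nL into about 20 µL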
# Target sequence (Q9Y5K5 whole entry, looked up): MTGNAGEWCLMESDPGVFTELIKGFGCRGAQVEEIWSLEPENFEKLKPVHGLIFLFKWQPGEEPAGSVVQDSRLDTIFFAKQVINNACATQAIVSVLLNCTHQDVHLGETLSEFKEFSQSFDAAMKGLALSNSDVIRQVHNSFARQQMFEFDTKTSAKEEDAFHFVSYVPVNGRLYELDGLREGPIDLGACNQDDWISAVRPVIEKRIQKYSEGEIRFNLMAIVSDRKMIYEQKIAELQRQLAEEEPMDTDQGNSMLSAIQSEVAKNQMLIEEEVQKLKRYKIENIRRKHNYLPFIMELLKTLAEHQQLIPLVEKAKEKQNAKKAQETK
#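 Schedule: 30 min plus 25 min, room temperature / Material: human UCH37 within purified proteasomes / Technique: AMC fluorescence intensity at 355/460 nm / Buffer or medium: pH 7.4 Tris-HCl (50 mM) with ovalbumin, ATP-MgCl2, DTT / Controls: wells without proteasome as full block, compound-free enzyme plus substrate as uninhibited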
# Ecoli growth: E. coli growth inhibition, primary screen, OD600; Escherichia coli growth, 23 h; active compounds read low; OD600 absorbance (test concentration not listed); 330,000 compounds, 0.21% hits; AID 1053175, 2014;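 active means OD600 absorbance below the run mean of sample wells minus 3.6 SD, in any replicate, cut at about 0.56 in these data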;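 further: stock transfer was 300 nL into about 60 µL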
# * marks the source's active call; other numbers are inactive results. A portion of the library. The share of hits here may be higher or lower than overall.
SMILES,UCH37 inh,Ecoli growth
O=[N+]([O-])c1ccc(-c2ccc(C=NO)o2)cc1,7.2,0.69
Clc1ccc(C=NNc2nn[nH]n2)cc1,2.7,0.69
COc1ccc(C=NNC(=O)c2sc(N)nc2C)cc1OC,9.2,0.74
O=S(=O)(NN=Cc1cn(-c2ccccc2)nc1-c1ccccc1)c1ccccc1,0.5,0.71
COc1cc(-c2nc3ccccn3c2N=Cc2cc(OC)c(O)cc2Cl)ccc1O,-9.5,0.67
O=C(NN=Cc1ccc(Cl)cc1)c1nc2ccc([N+](=O)[O-])cc2c(=O)[nH]1,12,0.68
CC1(C)C2CC=C(C=NNC(=S)Nc3cccnc3)C1C2 (stereo not drawn),2.6,0.67
CC(C)(C)OC(=O)NCCC(=O)NN=Cc1cccc2nccnc12,7.4,0.69
CC(=NNC(=O)C(=O)NN=C(C)c1cccc(O)c1)c1cccc(O)c1,3.0,0.67
Cc1ccc(Oc2ccc(C=NO)cn2)cc1,6.1,0.72
COc1ccc2c(c1)[nH]c1c(=O)n(N=Cc3ccc(OC)c(CN4CCCC4)c3)cnc12,6.1,0.7
COc1cc(C=NNc2ncc(C(F)(F)F)cc2Cl)cc(OC)c1O,6.3,0.67
O=[N+]([O-])c1ccc(NN=Cc2cccnc2)cc1,2.8,0.64
COCc1c(C(=O)NN=C(C)c2ccc(OCc3ccccc3)cc2)nnn1-c1nonc1N,-59,0.72
CCc1ccccc1NC(=S)N=C(N)Nc1nc(C)c2cc(C)ccc2n1,1.1,0.7
CCN(CC)c1ccc(C=NNc2nc(C)cc(=O)[nH]2)cc1,-40,0.67
O=C(CN1CCN(Cc2ccccc2)CC1)NN=C/C=C/c1ccccc1[N+](=O)[O-],8.0,0.68
Brc1ccc(C=NNc2ncnc3c2cnn3Cc2ccccc2)cc1,-1.8,0.81
CC(=NNC(N)=S)C12CC3CC(CC(C3)C1)C2,-1.0,0.71
O=[N+]([O-])c1ccc(NN=Cc2ccc(OCc3cccc4ccccc34)cc2)nc1,4.2,0.71
FC(F)(F)c1nc2ccccc2nc1NN=Cc1c(Cl)cccc1Cl,2.7,0.76
COc1ccc(C=NN(C)C2=NS(=O)(=O)c3ccccc32)cc1OC,-69,0.7
COc1ccc(C=NS(=O)(=O)c2ccc(C)cc2)cc1,0.5,0.7
CCC(C)=NNc1nc(-c2cc3cc(OC)ccc3oc2=O)cs1,-21,0.69
CC(=NNC(N)=S)c1cc(-c2ccccc2)c(-c2ccccc2)s1,-15,0.69
# Further structures
SMILES,UCH37 inh,Ecoli growth
COCCCn1c(=C(C#N)C(=O)Nc2ccc(C(=O)O)cc2)sc(=Cc2cccc(OC)c2OC)c1=O,8.6,0.73
COc1ccc(N(CC(=O)NN=Cc2ccc3c(c2)OCO3)S(=O)(=O)c2ccc(NC(C)=O)cc2)cc1,3.1,0.7
C(=NNc1cc(N2CCCCC2)ncn1)c1ccco1,9.6,0.69
Cc1ccc(Sc2oc(C=Nn3cnnc3)cc2Br)cc1,-6.0,0.71
COc1cc(C(=O)NCC(=O)NN=Cc2ccco2)cc(OC)c1OC,0.5,0.61
CC(C)NC(=S)NN=Cc1cccnc1,7.6,0.64
O=C(CON=Cc1ccccc1)N1c2ccccc2Oc2ccccc21,0.8,0.72
CC1=Nc2ncnn2C(c2ccccc2)C1=NO (stereo not drawn),3.9,0.66
O=C(NN=Cc1ccccc1C(=O)O)c1ccccc1Br,0.0,0.69
NC(=O)NN=Cc1ccc(OCc2cccc(Cl)c2)cc1,2.7,0.72
Cc1c(C=NNc2ccc(C(=O)O)cc2)c2ccccc2n1C,-11,0.7
COc1ccc(NCC(=O)NN=C/C=C\c2ccccc2)cc1,6.7,0.68
COc1ccc(C=NNC(=O)c2ccncc2)cc1CN1CCN(c2ccc(F)cc2)CC1,8.1,0.7
CC(=O)Nc1ccc(C(=O)NN=C(C)CC(=O)Nc2ccc(OCc3ccccc3)cc2)cc1,-0.5,0.71
CCOC(=O)C(=NNc1ccccc1)P(=O)(c1ccccc1)c1ccccc1,9.2,0.66
CC(=NNc1ccccn1)c1ccc(OC(F)F)cc1,1.2,0.65
Cc1c(C=NNC(=O)c2cccnc2)c2ccccn2c1C(=O)c1ccc(F)cc1,9.8,0.7
CCC1(C)NC(=O)N(N=Cc2cc(OC)c(O)c(OC)c2)C1=O (stereo not drawn),0.9,0.66
O=C(NN=Cc1ccc2c(c1)OCO2)C(=O)Nc1ccc2ccccc2c1,0.5,0.63
CC(CC(=O)Nc1ccc(C)c(Cl)c1)=NNC(=O)C1CCCCC1,0.6,0.66
CC(=NNC(=O)c1cnccn1)c1ccc([N+](=O)[O-])cc1,8.7,0.65
O=C(CN1CCN(Cc2ccccc2)CC1)NN=Cc1c[nH]c2ccccc12,2.7,0.71
COc1ccc(C=c2sc3nc(-c4ccccc4OC)nn3c2=O)c(OC)c1,4.4,0.63
CC(C)C=NNC(=O)c1cccc(N2CCCC2=O)c1,2.6,0.69
CC(C)(C)C(=O)ON=C(N)c1ccc(Oc2cc(Cl)cc(Cl)c2)c([N+](=O)[O-])c1,5.3,0.7
# (more compounds)
SMILES,UCH37 inh,Ecoli growth
O=C(NN=Cc1cccs1)C(O)c1ccccc1 (stereo not drawn),3.9,0.66
CC(C)(C)c1ccc(C=NOCC(=O)NCc2ccccc2)cc1,1.4,0.64
CCOC(=O)C1=C(C)N=c2sc(=Cc3cc(OC)c(OC)c(OC)c3)c(=O)n2C1/C=C/c1ccccc1 (stereo not drawn),0.9,0.74
C/C(C=NNC(=O)Cc1cccs1)=C\c1ccco1,6.9,0.72
COc1ccc2c(c1)c(C(=O)NN=Cc1ccc(Cl)cc1)c(C)n2C,0.5,0.69
CC(=NNC(=O)OC(C)(C)C)c1ccccc1Br,3.1,0.71
C=CCOc1ccccc1C=NNC(=O)Cc1ccccc1,2.2,0.68
COc1ccc(C(=O)ON=C(N)c2ccccc2)c(OC)c1,2.2,0.7
FC(F)(F)c1ccc(Cl)c(NC(=S)NN=Cc2ccccc2C(F)(F)F)c1,6.3,0.73
COc1ccc(C=NNC(=O)CNC(=O)c2ccncc2)cc1OC,4.9,0.65
C=CCNC(=O)CC(=O)NN=Cc1ccc(C(=O)OC)cc1,2.5,0.75
C=C(C)CNC(=S)NN=C(C)c1ccc(OC)cc1,2.7,0.67
Cc1[nH]c2ccccc2c1C=NNc1ccc([N+](=O)[O-])cc1S(=O)(=O)Nc1ccc(Cl)cc1,11,0.65
CC(=NNC(=O)CNC(=O)c1cccs1)c1ccco1,4.5,0.63
CON=Cc1ccc(N2CCN(C(=O)c3ccc(Cl)cc3Cl)CC2)c([N+](=O)[O-])c1,4.3,0.74
Fc1ccc2[nH]c3c(N4CCN(Cc5ccc6c(c5)OCO6)CC4)ncnc3c2c1,-6.3,0.73
O=C(NN=Cc1cn(-c2ccccc2)nc1-c1cc2ccccc2o1)c1cccnc1,-20,0.67
Cc1cccc(C=NNC(=O)c2cccc(Cl)c2)n1,2.3,0.69
Cc1ccc(-c2nnc(SCC(=O)NN=Cc3c(C)nn(-c4ccccc4)c3C)n2-c2ccccc2)cc1,1.0,0.71
O=C(Cc1cccs1)NN=C/C=C\c1ccco1,13,0.7
CC1CCCC(=NNS(=O)(=O)c2ccccc2)C1 (stereo not drawn),2.9,0.71
O=C(O)c1cc(NN=Cc2ccc(N3CCOCC3)cc2)ccc1Cl,8.3,0.67
O=C(NN=Cc1ccccc1O)C1CC(=O)N(c2ccc(F)cc2)C1 (stereo not drawn),-40,0.7
CCN(N=Cc1ccccc1)c1cc(=O)n(C)c(=O)[nH]1,13,0.68
O=C(NCc1ccc(Cl)cc1)C(=O)NN=Cc1ccc(Br)cc1,-0.7,0.68

# Compounds from the list above that contain a COOH group, in the order listed:
SMILES,UCH37 inh,Ecoli growth
COCCCn1c(=C(C#N)C(=O)Nc2ccc(C(=O)O)cc2)sc(=Cc2cccc(OC)c2OC)c1=O,8.6,0.73
O=C(NN=Cc1ccccc1C(=O)O)c1ccccc1Br,0.0,0.69
Cc1c(C=NNc2ccc(C(=O)O)cc2)c2ccccc2n1C,-11,0.7
O=C(O)c1cc(NN=Cc2ccc(N3CCOCC3)cc2)ccc1Cl,8.3,0.67

# Entries listed so far that have an aryl thioether with sulfur outside any ring, in the order listed:
SMILES,UCH37 inh,Ecoli growth
Cc1ccc(Sc2oc(C=Nn3cnnc3)cc2Br)cc1,-6.0,0.71
Cc1ccc(-c2nnc(SCC(=O)NN=Cc3c(C)nn(-c4ccccc4)c3C)n2-c2ccccc2)cc1,1.0,0.71

# The main list resumes, starting 3 compounds before the break.
SMILES,UCH37 inh,Ecoli growth
O=C(NN=Cc1ccccc1O)C1CC(=O)N(c2ccc(F)cc2)C1 (stereo not drawn),-40,0.7
CCN(N=Cc1ccccc1)c1cc(=O)n(C)c(=O)[nH]1,13,0.68
O=C(NCc1ccc(Cl)cc1)C(=O)NN=Cc1ccc(Br)cc1,-0.7,0.68
CCCOc1ccc(C(CC)=NNC(=O)C2(C)CC2(Br)Br)cc1 (stereo not drawn),2.9,0.69
CCOc1cc(C=NNC(=O)c2cccc([N+](=O)[O-])c2)ccc1OS(=O)(=O)c1ccccc1,0.4,0.68
O=C(COc1ccc(-c2ccccc2)cc1)NN=Cc1cc(O)ccc1Br,0.6,0.65
CCc1cccc(CC)c1NC(=O)CON=C(C)c1cccs1,-0.4,0.72
CC(=NNC(=O)c1cc2ccccc2cc1O)C1C(=O)c2ccccc2C1=O,16,0.69
CC(/C=C/c1ccc(O)cc1)=NO,2.8,0.74
C=CCNC(=S)NN=Cc1ccc(C(F)(F)F)cc1,0.8,0.69
Cn1c(NN=Cc2cccs2)cc(=O)n(C)c1=O,5.8,0.68
NC(=O)NN=C/C=C/c1ccccc1,2.4,0.73
CCOC(=O)NN=Cc1sccc1C,5.3,0.68
c1cncc(CSc2nnc(-c3cccnc3)n2Cc2ccco2)c1,4.5,0.67
CCOc1ccc2ccccc2c1C=NNC(=O)c1ccncc1,5.1,0.66
CC(=NNc1ccc(Cl)c(C(=O)O)c1)c1ccc2c(c1)OCO2,3.9,0.71
O=C(NN=Cc1cccs1)C(=O)Nc1cccc(Cl)c1,5.5,0.73
O=C(O)COc1ccccc1C=NNC(=O)CSc1nnc(SCc2ccc(Cl)cc2)s1,3.8,0.64
COc1cc(C(=O)NN=Cc2ccc(OC(=O)c3cccc(C)c3)cc2)ccc1O,1.3,0.63
CCOC(=O)C(C)=NNc1nc(-c2ccc(NC(C)=O)cc2)cs1,9.0,0.61
O=C(c1cc(-c2ccccn2)nc2ccc(Br)cc12)N1CCc2ccccc2C1,3.8,0.69
Cc1ccc(C(=O)ON=C2CCCc3ccccc32)cc1,2.9,0.72
Cc1cccc(COc2ccc(C=NNC(=O)c3nnn(-c4nonc4N)c3COc3ccc(F)cc3)cc2)c1,-16,0.77
CC(CC(=O)Nc1cccc2c1CCCC2)=NNC(=O)c1cccc2ccccc12,6.5,0.73
O=C(NN=Cc1ccc[nH]1)c1ccccc1OCc1ccccc1Cl,-4.3,0.69
O=C(CN1CCCCCC1)NN=Cc1cccc(Cl)c1,4.6,0.67
CCOc1ccc(-c2cc(C(=O)NN=Cc3cccnc3)c3ccccc3n2)cc1,-53,0.73
Cc1ccccc1COc1ccc(C=NNC(=O)c2nnn(-c3nonc3N)c2CN2CCC(C)CC2)cc1,5.9,0.69
# (continued)
SMILES,UCH37 inh,Ecoli growth
O=C(COc1ccccc1)NCC(=O)NN=Cc1cccs1,-0.8,0.71
O=C(NN=Cc1ccco1)c1ccccc1OCc1ccccc1Cl,4.7,0.69
CC(=NNC(=O)Cc1ccccc1)c1ccc(C)s1,3.1,0.67
S=C(NCCN1CCOCC1)NN=Cc1ccccc1,1.0,0.7
CN(C)CCCNCCNC(=O)C=NO,0.7,0.71
CCCOc1ccc(-c2c(C(=O)NN=Cc3cccnc3)nnn2-c2nonc2N)cc1,3.0,0.73
Cc1ccc(NC(=S)NN=C2CCCCc3ccccc32)cc1,-1.7,0.68
C(=Nn1cnnc1)c1ccc(N2CCOCC2)cc1,-47,0.69
NN=C(Cc1nc2ccccc2[nH]1)c1ccc([N+](=O)[O-])cc1,6.5,0.62
Cc1cc(C)n(N=Cc2ccc(C(C)C)cc2)c(=O)c1C#N,5.3,0.72
O=C(Nc1ccccc1C(=O)NN=Cc1ccco1)c1ccc(F)cc1,-1.6,0.7
COc1ccc(CC(=O)NN=Cc2ccc(Cl)s2)cc1OC,7.2,0.62
CCN1C(=O)/C(=C\N(C)C)SC1=NS(=O)(=O)c1ccc(C)cc1,5.2,0.69
CC(=NNC(=O)CNC(=O)c1ccncc1)c1ccc(Cl)cc1,2.5,0.63
Cc1ccnn1CC(=O)NN=Cc1ccc2c(c1)OCO2,3.4,0.68
COc1ccc(CCN2C(=O)CSC2=NNC(=O)c2ccc(C(C)(C)C)cc2)cc1OC,5.7,0.7
O=S(=O)(NN=Cc1cccc(OC2CSC2)c1)c1ccccc1,3.3,0.7
Cc1ccccc1-n1c(SCC(=O)NN=C/C=C/c2ccccc2[N+](=O)[O-])nc2ccccc2c1=O,7.9,0.71
CCCCC1CC(C(C)=NNC(N)=O)OC1=O (stereo not drawn),3.1,0.75
Cc1ccc(C=N/N=C2/NC(=O)C(CC(=O)Nc3ccc(Cl)cc3)S2)o1 (stereo not drawn),4.9,0.68
CC(=NNc1ccc(C)cc1)C1(C)N(O)C(C)(C)C(c2ccco2)=[N+]1[O-] (stereo not drawn),0.5,0.66
O=C(NN=Cc1ccccn1)c1cc(-c2ccncc2)nc2ccccc12,1.6,0.71

# Sorted by value in UCH37 inh (high to low): 3 from the list above.
SMILES | UCH37 inh
Cc1cc(C)n(N=Cc2ccc(C(C)C)cc2)c(=O)c1C#N | 5.3
CC(=NNC(=O)Cc1ccccc1)c1ccc(C)s1 | 3.1
Cc1ccc(NC(=S)NN=C2CCCCc3ccccc32)cc1 | -1.7

# Source: PubChem BioAssay (ICCB-Longwood Screening Facility, Harvard Medical School)
